KCNQ2 inh – KCNQ2 channel blockers in CHO-K1 cells – cell-based, FluxOR thallium flux, B-score, primary screen (AID 2156); O88943; 20 min; active compounds read low; only compounds with negative scores are shown here; some inactives read as strong as hits; B-score at 10 µM; hit rate 1.1% among 310,000;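 active = fluorescence ratio B-score at most minus 3 library SDs, with starting brightness B-score within 2 library SDs, cut at about -5.5 in these data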
Target sequence (O88943 whole entry, looked up): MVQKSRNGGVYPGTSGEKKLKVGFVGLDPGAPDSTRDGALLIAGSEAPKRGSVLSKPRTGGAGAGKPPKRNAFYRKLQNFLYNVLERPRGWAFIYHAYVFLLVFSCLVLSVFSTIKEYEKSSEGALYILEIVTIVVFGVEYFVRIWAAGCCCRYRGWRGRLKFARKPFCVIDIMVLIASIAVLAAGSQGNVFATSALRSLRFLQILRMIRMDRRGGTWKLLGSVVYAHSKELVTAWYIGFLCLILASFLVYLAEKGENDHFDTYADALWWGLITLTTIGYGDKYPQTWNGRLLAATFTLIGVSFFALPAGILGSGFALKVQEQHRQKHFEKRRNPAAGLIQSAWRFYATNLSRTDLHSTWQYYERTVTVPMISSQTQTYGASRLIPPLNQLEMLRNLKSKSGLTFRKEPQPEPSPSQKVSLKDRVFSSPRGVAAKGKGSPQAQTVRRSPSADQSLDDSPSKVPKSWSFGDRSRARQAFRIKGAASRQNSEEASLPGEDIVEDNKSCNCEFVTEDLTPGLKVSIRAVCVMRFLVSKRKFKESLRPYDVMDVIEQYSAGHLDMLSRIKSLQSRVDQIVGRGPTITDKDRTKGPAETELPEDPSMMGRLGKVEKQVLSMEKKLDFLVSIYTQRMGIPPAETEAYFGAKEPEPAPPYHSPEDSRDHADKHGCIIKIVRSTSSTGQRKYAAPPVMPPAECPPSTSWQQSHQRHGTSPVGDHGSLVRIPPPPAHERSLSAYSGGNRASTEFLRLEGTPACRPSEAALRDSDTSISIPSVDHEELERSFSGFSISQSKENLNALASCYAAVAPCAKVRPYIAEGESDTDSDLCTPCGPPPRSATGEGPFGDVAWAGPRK
KCNQ2 inh baseline – second read-out of KCNQ2 inh, no call of its own (marks repeat the call); B-score; measured here: initial fluorescence intensity artifact check;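 brightness before thallium and not channel activity; 0 = typical well and far values either way flag optical interference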
* marks the source's active call; other numbers are inactive results; i = inactive. The list is partial, so the mix of outcomes need not match the whole.

A first look, 5 compounds:
SMILES	KCNQ2 inh	KCNQ2 inh baseline
Fc1ccccc1CSc1nnc2ccc(-c3ccncc3)nn12	i	1.49
COc1nnc(-c2ccc(N3CCCCC3)c(N)c2)c2ccccc12	i	-2.63
CC(C)(C)n1nnnc1C(c1cccs1)N1CCCC2(CCCCC2)C1 (configuration not stated)	-7.45*	-0.19*
O=S1(=O)[C@H]2C[C@@H]3C=C[C@]2(CN1Cc1ccc(C(F)(F)F)cc1)O3	i	1.74
COc1ccc(Nc2ncnc3sccc23)cc1	i	-0.46

Main list, from the first entry:
SMILES	KCNQ2 inh	KCNQ2 inh baseline
Fc1ccccc1CSc1nnc2ccc(-c3ccncc3)nn12	i	1.49
COc1nnc(-c2ccc(N3CCCCC3)c(N)c2)c2ccccc12	i	-2.63
CC(C)(C)n1nnnc1C(c1cccs1)N1CCCC2(CCCCC2)C1 (configuration not stated)	-7.45*	-0.19*
O=S1(=O)[C@H]2C[C@@H]3C=C[C@]2(CN1Cc1ccc(C(F)(F)F)cc1)O3	i	1.74
COc1ccc(Nc2ncnc3sccc23)cc1	i	-0.46
CCCCn1c(N)c(N(CCC(C)C)C(=O)Cc2ccc(S(=O)(=O)N3CCOCC3)s2)c(=O)[nH]c1=O	i	-0.15
CCCCn1c(-c2ccsc2)nc2c1c(=O)[nH]c(=O)n2CCC	i	-1.66
O=C(NCCCN1CCCC1)c1cc(Sc2ccc(F)cc2)nc2ccccc12	i	0.14
Cc1c(C(=O)N(C)Cc2ccccc2)oc2c(Cl)cccc12	i	-0.85
COc1cc(C2SCC(=O)N2Cc2ccccc2)cc(OC)c1OC (configuration not stated)	i	-1.11
O=C(Nc1ccc2c(c1)OCO2)NC1(C(F)(F)F)Oc2ccccc2O1	i	-0.24
Fc1ccc(-c2cnc3n2CCCCC3)cc1	i	-0.35

Single records, as listed above. Screens in order: KCNQ2 inh | KCNQ2 inh baseline
`Fc1ccccc1CSc1nnc2ccc(-c3ccncc3)nn12` across the screens: i | 1.49
`Fc1ccc(-c2cnc3n2CCCCC3)cc1` across the screens: i | -0.35
`CCCCn1c(N)c(N(CCC(C)C)C(=O)Cc2ccc(S(=O)(=O)N3CCOCC3)s2)c(=O)[nH]c1=O` across the screens: i | -0.15
`CC(C)(C)n1nnnc1C(c1cccs1)N1CCCC2(CCCCC2)C1` (configuration not stated) across the screens: -7.45* | -0.19*

More results.
SMILES	KCNQ2 inh	KCNQ2 inh baseline
COc1ccc(NC(=O)/C(=C/c2ccc3c(c2)OCO3)NC(C)=O)cc1	i	0.28
COC(=O)c1ccc(NS(=O)(=O)c2ccc(OC)cc2)cc1	i	1.03
O=C(c1ccc(COc2ccccc2Cl)o1)N1N=C(C(F)F)CC1(O)C(F)F (configuration not stated)	i	-0.95
Clc1ccccc1SCc1nc2ccccc2[nH]1	-5.77*	0.71*
Cc1c(Cl)cccc1NC(=O)CSc1ncnc2c1cnn2CCc1ccccc1	i	-0.23
CCC(=O)NNC(=O)CCC(=O)Nc1ccc(C)cc1C	i	-0.24
CC(=O)c1ccc(NC(=O)C2CCCNC2=O)cc1 (configuration not stated)	i	-0.31
CC1CN(CCCCOc2ccc(F)cc2)CC(C)O1 (configuration not stated)	i	1.31
COc1cc(C(=O)N2C(=O)CCC2=O)cc(OC)c1OC	i	0.92
CCC(C(=O)NCCC1=CCCCC1)c1ccccc1 (configuration not stated)	i	-1.88
C/C(=N\NC(=S)NC(C)C)c1ccccc1	i	1.57
COc1ccc2[nH]c3c(c2c1)CCN1C(=O)N([C@@H](C)C(=O)NCc2ccco2)C(=O)[C@]31C	i	-0.52
Cc1cccc(NC(=O)C2CCCN(S(=O)(=O)c3cccs3)C2)c1C (configuration not stated)	i	0.92
CC(C)c1nc2sc3ccccc3c(=O)c2c(=O)n1Cc1ccccc1	i	0.31
Cc1[nH]c2ccccc2c1C(=O)CN1CCC(C(N)=O)(N2CCCCC2)CC1	i	1.03
O=C(COc1ccc(Cl)cc1)NCCC1=CCCCC1	i	1.03
Oc1ccc(-c2csc(NCc3ccco3)n2)cc1	i	-0.3
CCn1nc(C)c(/C=N/NC(=O)c2ccc3c(c2)c(C)c(C)n3Cc2ccccc2)c1C	i	-2.27
COc1cccc(NC(=O)c2ccc(S(=O)(=O)N3CCCC3)cc2)c1	i	0.25
NS(=O)(=O)c1ccc(NC(=O)C2COc3ccccc3O2)cc1 (configuration not stated)	i	0.11
CCc1nnc(NC(=O)C2Cc3ccccc3CN2S(=O)(=O)c2cccs2)s1 (configuration not stated)	i	-0.04
COc1cccc(C2NC(=O)NC(O)(C(F)(F)F)C2C(=O)c2cccnc2)c1OC (configuration not stated)	i	-1.16
CC(C)NC(=S)Nc1ccc2[nH]c(=O)[nH]c2c1	i	0.93
O=c1cc(-c2ccco2)oc2ccc(Cl)cc12	i	-1.27
CC(C)n1nc(C(=O)NCCc2ccc(S(N)(=O)=O)cc2)c2ccccc2c1=O	i	0.08
COC(=O)CN(c1ccccc1C)S(C)(=O)=O	i	0.08
O=C(Cc1c(C(=O)O)[nH]c2ccccc12)NC1CCCC1	i	0.91
N#Cc1cc(C(=O)Cc2ccccc2)c[nH]1	i	-0.03
C=CCNC(=O)c1ccc2nc(-c3ccccc3)c(-c3ccccc3)nc2c1	i	-0.15
O=C(NCC1OCCCN1S(=O)(=O)c1ccc(F)cc1)C(=O)NC1CCCC1 (configuration not stated)	i	1.76
O=C(COC(=O)[C@@H]1CC(O)CN1S(=O)(=O)c1ccccc1[N+](=O)[O-])Nc1ccc2ccccc2c1 (some centres not stated)	i	-0.04
CC(=O)c1c(C)nc2ccc([N+](=O)[O-])cc2c1-c1ccccc1	i	-3.39
COc1cc2c(cc1OC)CN(c1ncccc1[N+](=O)[O-])CC2	i	0.46
COc1cc2c(cc1OC)C(C)N(C(=O)c1cc3c(C)cc(C)cc3[nH]1)CC2 (configuration not stated)	i	-0.91
CC1=Nc2ccccc2N=C(NC(=O)CSC(=S)N2CCCCC2)C1c1ccccc1 (configuration not stated)	i	0.33
Cn1c(=O)cc(OCCCC(=O)NCc2ccc3c(c2)OCO3)c2ccccc21	i	1.22
O=C(NCc1nc2ccccc2[nH]1)C1=C[C@H](C2CCCCC2)C[C@H](OCc2ccc(CO)cc2)O1	i	0.73
OC[C@H]1OC(O)[C@@H](O)[C@@H](O)[C@@H]1O (some centres not stated)	i	0.67
CCN(CC)C(=O)Cc1c(O)c2ccccc2[nH]c1=O	i	1.14
FC(F)(F)c1ccc(Oc2ccc3ccccc3c2Br)nc1	i	0.96
CCCCOc1ccc(C(=O)NCC(=O)N2CCN(C(=O)c3ccco3)CC2)cc1	i	1.94
Cc1ccc(-c2noc(C3CCCN(C(=O)c4cccc(F)c4)C3)n2)cc1 (configuration not stated)	i	-2.38
Cc1cc(C(=O)CN2C(=O)c3cccc(N)c3C2=O)c(C)n1Cc1cccs1	i	1.09
CC1=C(C(=O)Nc2ccccc2)C(c2ccc(C(C)C)cc2)N2C(=O)CSC2=N1 (configuration not stated)	i	0.2
Cc1cccc(OCc2nc(C#N)c(NCc3ccc4c(c3)OCO4)o2)c1	i	-0.07
Cc1ccc(C)c(NC(=S)NCc2ccc3[nH]c4c(c3c2)CCCC4)c1	i	-0.32
N=C1C(=O)OCC1c1ccccc1NC(=O)CN1CCOCC1 (configuration not stated)	i	-0.92
O=c1cc(-c2ccccc2)[nH]n1-c1nc2ccccc2[nH]1	i	0.38
COC(=O)NNC(=O)c1cccc(C)c1	i	-0.61
O=C(NNc1nc2ccccc2s1)C1CC1	i	-0.65
COc1ccc(C(O)(C(=O)NNc2ccc(C)cc2)c2cccs2)cc1 (configuration not stated)	i	0.04
C=CCn1c(SCc2ccc(C#N)cc2)nnc1-c1ccccc1	i	1.99
COc1cc(C(=O)N[C@H](C(=O)Nc2nnc(C3CC3)s2)C(C)C)cc(OC)c1OC	i	1.38
O=C(C[n+]1cc(-c2ccc(F)cc2)n2c1CCC2)N1c2ccccc2Sc2ccccc21	i	0.93
O=C(Nc1ccncc1)Nc1cccc(Cl)c1Cl	i	0.2
Cc1ccccc1Nc1c([N+](=O)[O-])ccc2nonc12	i	1.72
CC(=O)c1sc(NC(=O)c2ccccc2)nc1-c1ccccc1	i	1.17
COC(=O)c1c(NC(=O)C2CC(=O)NN2Cc2ccccc2)sc(C)c1C (configuration not stated)	i	-1.24
O=C(CCc1ccc(Oc2cc([N+](=O)[O-])cc([N+](=O)[O-])c2)cc1)N1CCCCCC1	i	2.06
CC(C)(C)OC(=O)[C@H](Cc1ccccc1)NC(=O)c1[nH]cnc1C(=O)Nc1cccc(Cl)c1	i	1.53

Some of these compounds in order of their number in KCNQ2 inh baseline, falling.
Molecule | KCNQ2 inh baseline
O=C(CCc1ccc(Oc2cc([N+](=O)[O-])cc([N+](=O)[O-])c2)cc1)N1CCCCCC1 | 2.06
CC(C)(C)OC(=O)[C@H](Cc1ccccc1)NC(=O)c1[nH]cnc1C(=O)Nc1cccc(Cl)c1 | 1.53
O=C(Nc1ccncc1)Nc1cccc(Cl)c1Cl | 0.2

(list continues)
SMILES	KCNQ2 inh	KCNQ2 inh baseline
Cc1cc(-c2ccccc2)nc(N(C)NC(=O)C2CC2)c1S(C)(=O)=O	i	-1.57
CCOc1ccc(CN(C)CC(=O)Nc2ccc(N3CCOCC3)cc2)cc1OC	i	-2.33
O=C(NC(=S)Nc1cc(S(=O)(=O)N2CCOCC2)ccc1N1CCOCC1)c1ccco1	i	0.66
CCn1c(C(=O)N2CCCC(C(=O)NCCCc3ccccc3)C2)cc2sccc21 (configuration not stated)	i	1.42
COc1ccc(NC(=O)c2coc3ccccc23)cc1OC	i	1.1
CCN(CC)C(=O)C(=O)N/N=C/c1ccc(F)cc1	i	0.02
O=P(O)(CN1CCCCCC1)C1Cc2ccccc2C1	i	-0.28
CC(C)CCN1CCN(Cc2coc3ccccc3c2=O)CC1CCO (configuration not stated)	i	-0.8
COc1ccc(NS(=O)(=O)c2c(C)cc(C)cc2C)cn1	i	-2.33
NS(=O)(=O)c1ccc(CCNC(=O)c2ccncc2)cc1	i	1.05
COc1ccc(N2CCN(C(=O)c3ccccc3NS(=O)(=O)c3ccc(C)cc3)CC2)cc1	i	-1.06
Cc1ccc(C)c(S(=O)(=O)N/N=C/c2cccnc2)c1	i	-0.12
Cc1ccccc1N1CC(C(=O)Nc2ccc3c(c2)OCO3)CC1=O (configuration not stated)	i	-0.07
Cc1ccc(-c2cc(-c3ccco3)c3c(N)c(C(=O)NN)oc3n2)cc1	i	2.62
CCn1cc(C(=O)NCCOC)c(=O)c2ccc(C)nc21	i	2.35
C=CCc1cc(OC)ccc1OCCN1CC(C)OC(C)C1 (configuration not stated)	i	-2.19
O=C(Nc1ccc(F)cc1)Nc1ccc(Cl)cn1	i	-0.99
COc1cccc(NC(=S)N(CCCN2CCOCC2)C(C)c2cc3ccccc3o2)c1 (configuration not stated)	i	0.9
Nc1nnnn1/N=C/c1cc(Cl)cc(Cl)c1O	i	17.3
Cc1noc2ncnc(Sc3ccccc3Cl)c12	i	0.21
CC1(C)CC(=O)c2sc(NC(=O)C3COc4ccccc4O3)nc2C1 (configuration not stated)	i	0.59
Cc1oc2c(CN3CCOCC3)c(O)ccc2c(=O)c1-c1ccccc1	i	-0.68
Cc1cccc2cc(CN(Cc3ccc(F)cc3)C(=O)C(F)(F)F)c3nnnn3c12	i	-0.31
Cc1cc(NC(=O)OC(C)C)ccc1-c1ccc(NC(=O)OC(C)C)cc1C	i	-0.19
Fc1ccc(C(c2nnnn2C2CCCC2)N(Cc2ccco2)CC2CCCO2)cc1 (configuration not stated)	i	0.02
COc1ccc(Cc2nn3c(Cn4nnc5ccccc54)nnc3s2)cc1	i	-0.39
CCC(NC(=O)/C(=C\c1ccc2c(c1)OCO2)NC(C)=O)C(=O)O (configuration not stated)	i	0.27
COc1cc(C)ccc1S(=O)(=O)N1CCN(C23CC4CC(CC(C4)C2)C3)CC1	i	-2.43
CCC(C)N1C(=O)CCC1C(=O)NCCc1ccc(Cl)cc1 (configuration not stated)	i	2.51
O=C(Nc1ccccc1)N1CCc2ccccc21	i	-1.17
Cc1ccccc1N(CC(=O)NCCSC1CCCCC1)S(=O)(=O)c1ccccc1	i	-1.22
Cc1ccccc1OCc1n[nH]c(=S)n1-c1ccccc1	i	-0.57
N#CC1=C(SCC(=O)c2cc3ccccc3oc2=O)NC(=O)C(C#N)C12CCCC2 (configuration not stated)	i	1.37
COc1ccc(OC(C)c2nnc(N)s2)cc1 (configuration not stated)	i	-0.37
O=C(NC1CCS(=O)(=O)C1)c1c(NC(=O)C2COc3ccccc3O2)sc2c1CCCC2 (configuration not stated)	i	-0.69
O=C(N/N=C/c1ccc([N+](=O)[O-])o1)c1ccc2c(c1)OCO2	i	0.1
Cc1ccc(NC(=O)c2sc(N)nc2-c2ccc([N+](=O)[O-])cc2)cc1C	i	0.8
COCCNC(=O)CN(c1ccccc1OC)S(C)(=O)=O	i	-0.02
Clc1ccc(/C(Cc2nc3ccccc3[nH]2)=N\Nc2ccccc2)cc1	-6.6*	-2.84*
O=C(Oc1ccc([N+](=O)[O-])cc1)c1cc(-c2ccccc2)nc2ccccc12	i	-0.19
CCCC(C)NCC(=O)Nc1ccccc1-c1ccccc1 (configuration not stated)	i	0.15
CC(C)C[C@H](NC(=O)c1[nH]cnc1C(=O)Nc1ccc(CNC(=O)OC(C)(C)C)cc1)C(=O)OC(C)(C)C	i	0.02
CC(=O)c1cccc(CN2CCN(C(C)C)C(CCO)C2)c1 (configuration not stated)	i	1.49
O=Cc1cn(CCOc2ccccc2)c2ccccc12	i	0.38
Cc1ccc(-c2n[nH]c(=S)n2/N=C/c2c(C)[nH]n(-c3ccccc3)c2=O)cc1	i	-0.01

Compound activity deposited in PubChem BioAssay by Johns Hopkins Ion Channel Center.
